gsp agonist: gsp mutant agonism | 0.13% of 340,000 active | Potency, µM (series often up to 76.9 µM), for inactives: at the highest dose activation (cAMP increase), hits mostly activators | gsp mutant cells, cAMP HTRF, 30 min; control for the full effect not named in the record; active = well fitted activation curve with a large enough effect; inconclusive = small, poorly fitted or top-dose-only effect, or another doubt; inactive = no such curve, though single readings can be large or run the other way; cell line not stated here;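 also: phosphodiesterase inhibitor Ro 20-1724 added with compounds to block cAMP breakdown; potency is read from the fitted curve at half-maximal effect; nearly all actives have a fitted effect of over 60% in size; about a fifth of the inactives were tested at one dose only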
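Cells stably selected in G418 were plated at 2000/well, grown 16-24 hr, then given compounds in DMSO with the PDE inhibitor […] (300 uM solution added) for 30 min at 37C; cAMP was read by HTRF.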
D2 potentiator: positive allosteric modulators of human D2 dopamine receptor; P14416; DiscoveRx D2 beta-arrestin cells, luminescence, 90 min; 100% = 57 uM dopamine signal; potentiation, % (no concentration beside the values); 0.23% of 360,000 active; active = potentiation of 50% or more; inconclusive = 30% to 50%; inactive = 30% or less;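 also: compound concentration not given in the record; tested on top of an EC20 dose of dopamine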
Target sequence (P14416 whole entry, looked up): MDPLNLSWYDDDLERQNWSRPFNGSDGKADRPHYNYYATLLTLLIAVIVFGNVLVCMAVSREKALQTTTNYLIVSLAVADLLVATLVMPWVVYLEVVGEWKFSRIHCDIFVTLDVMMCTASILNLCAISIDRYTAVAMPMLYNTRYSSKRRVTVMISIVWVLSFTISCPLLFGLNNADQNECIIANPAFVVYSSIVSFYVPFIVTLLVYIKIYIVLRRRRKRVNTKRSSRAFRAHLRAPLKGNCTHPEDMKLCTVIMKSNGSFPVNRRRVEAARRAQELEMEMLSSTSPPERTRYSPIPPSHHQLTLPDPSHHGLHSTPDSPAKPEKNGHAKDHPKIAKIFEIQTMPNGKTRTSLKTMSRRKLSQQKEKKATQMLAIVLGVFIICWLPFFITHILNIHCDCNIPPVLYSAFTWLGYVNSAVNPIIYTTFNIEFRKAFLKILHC
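PathHunter D2 cells, attached overnight at 37 deg C, received compound in DMSO plus dopamine at EC20 (50 nM final) for 90 min at 37 deg C. Beta-arrestin recruitment was read as luminescence after 1 h with detection reagent at ambient temperature.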
CtBP-E1A inh: inhibitors of CtBP/E1A interaction. AlphaScreen GST-E1A/His-CtBP binding, 1536-well; stronger effect = lower value; control for the full effect not named in the record. activity change, % (no concentration beside the values). 0.49% of 340,000 active. AID 651724; in the data active means activity change below about -65%; inconclusive means about -30% to -65%; inactive means above about -30%; also: % is scaled to controls: 0 for no effect and ±100 for the full control effect; compound concentration not given in the record
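Protein mix (5X: 125 nM each GST-E1A, His-CtBP) was incubated with pinned compound 2 h at 37 deg C in dark, in 50 mM Tris pH 8.0 buffer with 300 mM NaCl. Glutathione donor and nickel acceptor beads followed; AlphaScreen signal read after 1 h.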
gsp antag: antagonizes gsp, the McCune-Albright syndrome mutation; gsp-mutant cells, cAMP HTRF, 30 min; control for the full effect not named in the record; Potency, µM (highest dose often 76.9 µM), inactives show at the highest dose activity change, negative = inhibition, actives largely listed as inhibitors; 0.4% of 340,000 active; active = falling curve of any shape with a large fitted effect; inconclusive = falling curve, mostly with a smaller effect; inactive = flat or rising curve; cell line not stated here;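 also: intracellular cAMP measured with PDE inhibitor Ro 20-1724 present during compound exposure; potency is read from the fitted curve at half-maximal effect; % is scaled to controls: 0 for no effect and ±100 for the full control effect; nearly all actives have a fitted effect of over 65% in size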
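G418-selected cells were plated in DMEM/10% FBS for 16-24 h at 37C, then treated with compounds plus the PDE inhibitor […] (300 uM solution added) for 30 min at 37C. Intracellular cAMP was measured by HTRF after 30 min lysis at room temperature.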
Six1-Eya2 blk: blocks human Six1 binding to Eya2 | AlphaScreen GST-Six1/His-Eya2 binding, biochemical; stronger effect = lower value; control for the full effect not named in the record | 0.56% of 360,000 active | activity change, % (test concentration not listed) | Q15475+O00167; in the data active = activity change below about -65%; inconclusive = about -30% to -65%; inactive = above about -30%; also: % is scaled to controls: 0 for no effect and ±100 for the full control effect; compound concentration not given in the record
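Six1/Eya2 binding was read as AlphaScreen signal after compounds were pinned into GST-Six1 plus His-tagged Eya2 (5X stock 250/500 nM) in pH 8.0 Tris/NaCl/TCEP buffer, beads added, then incubated 1 h, 37 C, dark.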
D2 agonist: activates the human D2 dopamine receptor; P14416; DiscoveRx PathHunter D2 beta-arrestin, luminescence, 90 min; 100% = 57 uM dopamine signal; activation, % (test concentration not listed); 0.084% of 360,000 active; AID 624465; in the data active = activation above about 40%; inconclusive = about 15% to 40%; inactive = below about 15%; also: compound concentration not given in the record; the text of the record calls up to 30% inactive
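DiscoveRx PathHunter D2 beta-arrestin cells (2,100/well) attached overnight, then compound-stimulated 90 min at 37 C in HBSS/10 mM HEPES/0.1% Tween-20 buffer; beta-galactosidase complementation read by luminescence after 1 h at ambient temperature. Dopamine 57 uM final (EC100) as control.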
Starred values were filed as active, the others as inactive; ? = inconclusive; . = not tested or not shown; [ ] = another dose, or the depositor's remark.

#	SMILES	gsp agonist	D2 potentiator	CtBP-E1A inh	gsp antag	Six1-Eya2 blk	D2 agonist
1	N/C(=N/O)c1nc(N2CCCCC2)nc(N2CCCCC2)n1	6.1%	-8.3	-3.4	3.0%	-2.2	-3.1
2	C(#CCN1CCOCC1)COCCOC(c1ccccc1)c1ccccc1	-30.4%	1.6	-1.7	6.3%	2.6	2.0
3	CC(=O)c1ccc(NC(=O)C2=CC(c3ccc4c(c3)OCO4)=NS(=O)(=O)N2C)cc1	12.1%	-20.7	.	-0.7%	-13.4	-1.2
4	CCC(c1nnc(SCC(=O)Nc2nnc(-c3ccccc3)o2)o1)N(C)C (configuration not stated)	-2.2%	4.1	-20.1	-14.4%	-14.2	1.0
5	CCNC(=O)C1CC(=O)N(Cc2ccc(F)cc2)C(=Nc2ccc(OC)cc2)S1 (configuration not stated)	-47.1%[inhibitor]	-23.2	4.6	4.3%	-0.2	-1.6
6	Cc1ccc(C2N(c3ccc(Cl)cc3)C(=O)N3CCCN23)cc1 (configuration not stated)	2.3%	-0.9	2.8	0.5%	-2.7	1.8
7	CCN(C(=O)COC(=O)/C=C/c1ccc(OC(F)F)c(OC)c1)C1CCS(=O)(=O)C1 (configuration not stated)	-12.7%	0.6	-5.2	3.8%	-3.1	1.8
8	CCOC(=O)C1=C(C)N=C2c3ccccc3C(=O)C2C1c1ccc(Cl)cc1 (configuration not stated)	2.4%	-22.0	?	-6.7%	?	-4.2
9	Cc1ccc(C(=O)Nc2cccc(C(=O)NCc3ccccc3)c2)o1	4.1%	-10.6	-1.5	0.0%	-1.5	-0.6
10	O=C(c1ccco1)N1CCN(C(=O)c2cnn(-c3ccc(Cl)cc3)c2C2CCNCC2)CC1	6.7%	0.9	4.7	9.8%	0.8	-1.9
11	COCCCNC(=O)c1ccc(-c2c(C)noc2C)c2ccoc12	.	-0.6	-4.1	.	-12.0	-6.6
12	COCCNc1cc(-c2ccccc2)nc2cc(-c3cccc(F)c3)nn12	-25.4%	5.3	20.4	?	26.6	-0.2

Results in gsp antag, gsp agonist and Six1-Eya2 blk, for some of the entries so far:
| nr | molecule | gsp antag | gsp agonist | Six1-Eya2 blk |
| --- | --- | --- | --- | --- |
| 12 | COCCNc1cc(-c2ccccc2)nc2cc(-c3cccc(F)c3)nn12 | ? | -25.4% | 26.6 |
| 1 | N/C(=N/O)c1nc(N2CCCCC2)nc(N2CCCCC2)n1 | 3.0% | 6.1% | -2.2 |

Next part
#	SMILES	gsp agonist	D2 potentiator	CtBP-E1A inh	gsp antag	Six1-Eya2 blk	D2 agonist
13	CCCN(C(=O)c1cc(CC)c(C)s1)c1c(N)n(Cc2ccccc2)c(=O)[nH]c1=O	4.0%	-11.0	3.5	-6.8%	7.9	-1.2
14	CCN1CCN(c2ncnc3sc(C(=O)Nc4ccccc4F)c(C)c23)CC1	10.6%	-10.4	-8.1	2.1%	-8.9	-2.0
15	O=S(=O)(Nc1ccc(Br)cn1)c1ccc(Cl)s1	11.8%	4.1	4.2	0.2%	6.5	-0.3
16	O=C(Nc1ccc(OCC(F)(F)C(F)F)c(C(F)(F)F)c1)c1ccccc1O	-46.7%	-29.6	11.7	-29.2%	2.6	-0.7
17	O=C1C2CCC(C2)C1CN1CCOCC1 (configuration not stated)	-16.6%	-0.6	3.4	5.3%	5.4	-3.0
18	Cc1cccc(NS(=O)(=O)c2ccc(C)c(C(=O)NNC(=O)c3csc(N4CCOCC4)n3)c2)c1	?	-3.6	-10.1	3.8%	2.1	-1.9
19	O=C(CN1CCN(S(=O)(=O)c2ccc(Cl)cc2)CC1)Nc1ccc2c(c1)CCC2	0.4%	-16.2	-0.5	-11.5%	-3.3	-1.4
20	CCc1noc(C)c1C(=O)Nc1nc(-c2ccc(NC(C)=O)cc2)cs1	0.2%	-6.0	1.0	-8.8%	-1.0	0.5
21	COc1ccc(NC(=O)CCc2nnc3ccc(N4CCC(C)CC4)nn23)cc1OC	-0.3%	1.6	.	3.9%	-7.4	1.4
22	Cc1ccc(S(=O)(=O)c2cc3c(=O)n4cccc(C)c4nc3n(CC3CCCO3)c2=N)cc1C (configuration not stated)	13.5%	0.5	-1.0	1.1%	12.2	0.2
23	CNS(=O)(=O)c1cnccc1N1CCN(c2cccc(C(F)(F)F)c2)CC1	-11.3%	-8.7	7.7	-1.8%	4.3	2.1
24	Cc1cc(C2=NNC(=Nc3ccc(S(=O)(=O)N4CCOCC4)cc3)SC2)c(C)n1CC1CCCO1 (configuration not stated)	-5.2%	-2.0	-1.9	2.2%	-6.3	-0.3
25	CCOc1ccccc1N(CC(=O)Nc1ccccc1C(=O)NCc1ccco1)S(C)(=O)=O	-33.7%[inhibitor]	-15.6	0.3	-12.4%	-7.9	0.9
26	CCOc1ccc(CCNC(=O)Nc2ccccc2C)cc1OCC	-11.8%	-13.9	.	-1.6%	-0.5	1.8
27	CCOc1ccc(OCCC(=O)OCC(=O)Nc2ccc3c(c2)OCCO3)cc1	18.3%[15.4 µM]	-14.4	-1.7	5.5%	-10.5	-1.6
28	Cc1ccnc(SCCn2c(N3CC(C)OC(C)C3)nc3c2c(=O)n(C)c(=O)n3C)n1 (configuration not stated)	3.3%[15.4 µM]	-3.2	6.9	-3.3%	18.4	-3.8
29	C=CCn1c(=O)c2c(nc(-n3nc(C)cc3C)n2C)n(C)c1=O	-5.6%	-13.7	.	2.0%	?	2.4
30	CN(C)CCNc1nc2sc3c(c2c(=O)n1CCc1ccccc1)CCCCC3	12.4%	-8.1	.	13.3%	-1.4	1.1
31	Nn1c(SCC(=O)N2CCOCC2)nnc1-c1cccnc1	15.0%	-4.8	-3.1	10.5%	3.5	10.1
32	CCCN(CCC)CCNC(=O)CN1C(=O)COc2ccc(S(=O)(=O)N3CCOCC3)cc21	9.0%	-9.9	.	2.8%	5.8	2.8
33	Cc1c(C(=O)NCCN(C)C)oc2ccc(S(=O)(=O)N3CCC4(CC3)OCCO4)cc12	4.2%[15.4 µM]	-1.6	5.2	-2.1%	5.3	-0.3
34	C(=N\n1cnnc1SCc1ccccc1)/c1ccco1	6.2%	-16.0	7.6	5.0%	0.0	-0.8
35	COC(=O)c1cc2occc2n1Cc1nc(-c2cccc(Cl)c2)oc1C	-36.3%[inhibitor]	-6.1	1.2	-0.4%	-3.4	-4.4
36	COc1ccc(CN(CCN)C2CC(C)N(C)CC2C)cc1 (configuration not stated)	-16.6%[15.4 µM]	-13.5	-3.2	-2.8%	0.6	0.3
37	COc1cccc(C(=O)N2CCN(Cc3ccccc3Br)CC2)c1	6.1%	-27.2	.	-10.4%	4.2	-1.5
38	Cc1cc(N2CCCCCC2)nc(-c2ccccc2O)n1	-14.5%	-11.8	10.9	-31.5%	-18.9	-2.2
39	O=C(CCC(=O)N1CCOc2ccccc21)NC1CCN(Cc2ccccc2)CC1	-77.3%[inhibitor]	-14.4	-1.2	-3.4%	3.8	-2.8
40	Cc1ccc2oc(=O)c(/C=C(\O)CC(C)C)nc2c1	-0.2%	?	-19.4	-2.5%	3.7	2.5
41	CCNC(=O)c1cccc(NC(=O)CC2SC(N3CCCCC3)=NC2=O)c1 (configuration not stated)	-82.9%[inhibitor]	1.2	-0.2	9.6%	6.0	0.8
42	CCOc1ccc2nc(NCCNC(=O)C(C)C)c(C)cc2c1	-1.7%	-17.7	-2.2	-1.9%	4.8	-4.8
43	COc1ccccc1-n1c(=O)c(C#N)c(-c2ccc([N+](=O)[O-])cc2)c2cc(C(=O)c3ccccc3O)cnc21	16.4%	5.2	-14.9	?	-6.7	0.5
44	Cn1c(=O)c2c(nc(N3CCCCCC3)n2CC(=O)c2ccccc2)n(C)c1=O	-13.3%	0.4	4.5	-11.3%	1.8	-1.6
45	NS(=O)(=O)c1ccc(CCNS(=O)(=O)c2cccc(C(=O)O)c2)cc1	?	-1.9	8.4	14.9%	5.8	-5.5
46	N#Cc1nc(-c2ccco2)oc1NCCCN1CCOCC1	-1.4%	-2.4	3.9	9.6%	1.6	0.1
47	COc1cc(/C=C2\C(=N)N3N=C(S(C)(=O)=O)SC3=NC2=O)ccc1OS(=O)(=O)c1ccc(C)cc1	-35.0%[inhibitor]	-6.0	.	-10.4%	-8.7	-2.1
48	O=C(NNC(=S)Nc1ccc(Cl)c(Cl)c1)c1cccc([N+](=O)[O-])c1	0.6%[15.4 µM]	-17.8	4.9	-3.5%	0.9	-1.6
49	O=C(CN(C1CCCCC1)C1CCCCC1)N1CCc2ccccc2C1	0.3%	-25.8	-3.2	-20.6%	-0.8	-2.3
50	CC(C)CC(NS(=O)(=O)c1cc(C(=O)O)ccc1Cl)C(=O)O (configuration not stated)	15.5%	0.5	13.4	4.7%	6.2	3.0
51	Cc1ccc(S(=O)(=O)NC(C)(C)CSc2nncn2C)cc1	0.1%	-0.9	4.1	2.9%	1.7	0.8
52	O=C(CN1C2CCCC1CC(NC(=O)c1ccco1)C2)Nc1ccccc1 (configuration not stated)	7.3%	-49.1	-0.1	-4.8%	-3.2	-0.2
53	CCOc1ccc(-n2c(SC(C)C)nc3c(c2=O)SCC3)cc1	-1.1%	-8.3	-3.1	-8.5%	-7.5	-0.5
54	COc1ccc(Cn2cc(F)c(=O)n(C)c2=O)cc1[N+](=O)[O-]	10.8%[15.4 µM]	1.3	-1.5	-22.2%	-19.0	-9.2
55	CSc1cccc(NC(=O)CCCOc2ccccc2)c1	25.5%[15.4 µM]	-6.2	8.5	-2.0%	4.8	0.9
56	O=C(Nc1ccc(F)cc1)N1CCOCC1	12.1%	11.7	4.1	3.6%	5.1	-1.0
57	NC(=O)C1CCN(c2ccc(S(=O)(=O)N3CCCCC3)cc2[N+](=O)[O-])CC1	-12.1%[15.4 µM]	-24.5	6.1	-4.7%	-8.6	-3.4
58	COc1ccc(OC)c(S(=O)(=O)n2c([N+](=O)[O-])cnc2C)c1	11.7%[15.4 µM]	-3.6	-11.7	1.4%	12.1	4.2
59	O=C(COC(=O)/C=C/c1ccco1)Nc1ncc(C(F)(F)F)cc1Cl	0.4%[15.4 µM]	-6.5	-1.6	-1.1%	-13.8	0.8
60	CN1C(C(=O)NCc2cccc(C(F)(F)F)c2)CC2Cn3c(nc4ccccc43)C21 (configuration not stated)	.	-4.9	-2.6	-3.1%	-0.2	-4.7
61	O=C(c1cccc([N+](=O)[O-])c1)N1CCOCC1	5.6%[15.4 µM]	-0.1	-19.6	12.2%	3.5	-6.1
62	COc1ccc(OC)c(NC(=O)CN2C(=O)CSc3ccc(S(=O)(=O)N4CCCC4)cc32)c1	?	-1.8	-4.2	-13.5%	-3.2	-4.7
63	COc1ccc2nc(N/C(N)=N/C(=S)Nc3c(C)cccc3C)nc(C)c2c1	-28.6%	-12.9	.	0.7%	-26.9	-0.8
64	Cc1cc(C)n(-c2ccc(C(=O)OCc3nnc(-c4ccccc4)o3)cc2)n1	14.1%	3.3	2.3	4.3%	8.8	-0.8
65	CC(C)Cc1cc(C(=O)NCc2cccs2)no1	-13.9%	-11.0	7.5	15.4%	3.1	-3.9
